# Screening data: PubChem BioAssay, National Center for Advancing Translational Sciences (NCATS)
# RE007 growth inh = less growth of the S. pombe RE007 Vpr strain | S. pombe RE007 Vpr strain, BacTiter-Glo ATP luminescence, 24 h; control for the full effect not named in the record | Potency, µM (series often up to 92.2 µM), for inactives: at the highest dose activity change, negative = less growth | 360,000 compounds, 0.21% hits | AID 651644; active = well fitted falling curve with a large enough effect; inconclusive = small, poorly fitted or top-dose-only effect; inactive = no such curve, though single readings can be large or run the other way;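 further: on the % scale 0 is the no-effect control and ±100 the full control effect; nearly all actives have a fitted effect of over 50% in size; the assay follows cell death caused by Vpr and the record does not say whether a fall means rescue or toxicity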
#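 Fission yeast strain RE007, carrying one chromosomally integrated HIV-1 vpr copy, was seeded at OD 0.01 in PMG+AL medium with 23 nL pinned compound. After 24 h at 30 °C and 99% humidity, viability was read by BacTiter-Glo luminescence.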
# StopGo reporter = FMDV 2A StopGo reporter, luciferase signal; 410,000 compounds, 1.2% hits; Potency, µM (titrated, usually from 57.9 µM), for the others: at the highest dose signal change, negative = less light; human cells with a luciferase reporter of 2A StopGo recoding; control for the full effect not named in the record; active = well fitted falling curve with a large enough effect; inconclusive = small, poorly fitted or top-dose-only effect; inactive = no such curve, though single readings can be large or run the other way; tested in HEK293T cells; further: on the % scale 0 is the no-effect control and ±100 the full control effect; nearly all actives have a fitted effect of over 45% in size; luciferase light after 4 h
# SARS PLpro yeast = inhibitors of SARS-CoV papain-like protease in yeast | S. cerevisiae expressing SARS-CoV PLpro, growth rescue; control for the full effect not named in the record | Potency, µM (doses to about 32.9 µM), without a hit: at the highest dose activity, positive = growth rescue | 330,000 compounds, 0.19% hits; active means well fitted rising curve with a large enough effect; inconclusive means small, poorly fitted or top-dose-only effect; inactive means no such curve, though single readings can be large or run the other way; further: 0% is about no effect; nearly all actives have a fitted effect of over 55% in size; growth read by luminescence after 48 h
# Numbers without * were called inactive; ? = inconclusive; [ ] = dose if it differs, or a comment. Potency means the concentration at half of the fitted maximal effect. Only part of the results is shown, so the mix of outcomes need not match the whole.
Structure | RE007 growth inh | StopGo reporter | SARS PLpro yeast
O=C(CSc1nnnn1C1CC1)N1CCN(c2cccc(Cl)c2)CC1 | 0% | -60% | -4%
COc1cc(OC)cc(C(=O)NCCN2C(=O)S/C(=C\c3cccs3)C2=O)c1 | -13% | ? | -4%
N#CCC(=O)Nc1ccc(C(=O)NCC2(N3CCOCC3)CCCCC2)cc1 | -16% | -7% | -2%
CON(C)C(=O)C[C@@H]1C[C@H](OC(=O)c2ccc([N+](=O)[O-])cc2)CN1C(=O)OC(C)(C)C | -3% | -14% | -2%
CSCCC(NC(=O)c1ccco1)C(=O)NCC(c1ccco1)N1CCCCC1 (stereo not drawn) | 11% | -7% | 2%
COc1ccccc1CNc1ccc2nnc(CCNC(=O)c3ccccc3)n2n1 | -12% | 14% | 1%
CCOc1ccccc1OCC(=O)Nc1ccc2[nH]c(=O)[nH]c2c1 | 6% | -11% | 2%
CN(C)S(=O)(=O)n1cnc([C@@H]2[C@H]3C(=O)OC[C@@H]3C[C@@]23N=CN(Cc2ccccc2)C3=O)c1 | -9% | -14% | 1%
CCN1C(=O)[C@H]2[C@@H](c3ccc(SC4CCCCC4)c(OC)c3)N[C@@](Cc3ccccc3)(C(=O)OC)[C@H]2C1=O | -9% | 0% | -4%
Cc1ccc(-c2nnn(CC(=O)N3CCCCC3)n2)o1 | 14% | 0% | -3%
O=C(NC[C@@H]1CCCO1)c1cccc2c1C(=O)c1ccc(Cl)cc1S2(=O)=O | -11% | -9% | 0%
O=C(CN1CCN(S(=O)(=O)c2cccc(F)c2)CC1)Nc1ccnn1C1CCCC1 | 7% | -29% | 2%
CC1(C)CC2CC(C)(CN2C(=O)COC(=O)c2cncc(Br)c2)C1 (stereo not drawn) | 2% | -9% | 2%
CC(CN1CCCC1)C(=O)NN (stereo not drawn) | 11% | 6% | 2%
COC(C)(C)[C@@H](O)COc1c2ccoc2cc2oc(=O)ccc12 | 16% | -18% | 3%
COc1ccc([N+](=O)[O-])cc1NC(=O)COC(=O)Cn1cnc2ccccc2c1=O | -8% | -8% | 2%
COC(=O)c1cc(OC)c(OC)cc1NC(=O)CSCc1c(C)noc1C | -5% | -8% | 0%
COc1ccc(C(CNC(=O)c2ccco2)N2CCOCC2)cc1 (stereo not drawn) | -3% | 20% | 0%
CS(=O)(=O)c1ccc(C(=O)NNC(=O)c2cccs2)cc1 | 13% | -1% | 1%
CCOC(=O)c1sc2ncn(CC(=O)Nc3cc(C)on3)c(=O)c2c1C | 5% | -15% | 2%
COc1ccc2[nH]c3c(c2c1)CCN1C(=O)C(CC(=O)NCc2ccc(OC)c(OC)c2)C[C@H](C(=O)N2CCCCC2)[C@@]31CCc1ccccc1 (stereo partly drawn) | -9% | -27% | 3%
CCOC(=O)c1nnn(-c2nonc2N)c1-c1ccc(F)cc1 | 5% | -2% | -6%
O=S1(=O)c2ccc(Br)cc2OC(COCc2ccccc2)CN1Cc1ccccc1 (stereo not drawn) | 0% | 0% | -9%
Cn1c(SCC(=O)NC2CCS(=O)(=O)C2)nnc1-c1ccco1 (stereo not drawn) | 22% | -16% | 7%
Cc1ccc(C(=O)NCC(=O)N2CCCCCCC2)cc1 | 6% | 73%[activator] | -12%
COc1ccc(CC(=O)N2CCN(S(=O)(=O)c3ccc(Cl)s3)CC2)cc1 | -12% | -1% | 0%
O=C(NC1CCN(Cc2ccccc2)CC1)C(NS(=O)(=O)c1cccc2nsnc12)c1ccccc1 (stereo not drawn) | -6% | -14% | -1%
COc1ccc(-c2cn(CCN)c(-c3ccncc3)n2)cc1 | 5% | 0% | 2%
COc1ccc(OC)c2[nH]c(=O)c(CCNC(=O)Cc3cccs3)cc12 | 7% | 1% | 0%
C[C@H](CO)N1C[C@H](C)[C@@H](CN(C)C)Oc2c(NC(=O)C3CC3)cccc2C1=O | -1% | 28% | -2%
c1ccc(C[C@H]2CNCCN2CC2CCCCC2)cc1 | -4% | -12% | 1%
Cc1ccc(C(C)NC(=O)COC(=O)C2=COCCO2)cc1C (stereo not drawn) | -3% | 5% | 0%
Cc1ccc(Cn2nc(C)c(C(=O)NCC(c3ccc(F)cc3)N3CCOCC3)c2Cl)cc1 (stereo not drawn) | -9% | ? | 4%
C[C@H]1CN([C@@H](C)CO)C(=O)c2cccc(NC(=O)c3nc4ccccc4s3)c2O[C@H]1CN(C)C(=O)Nc1ccc(F)cc1 | 0% | -25% | 11%
COc1ccc2oc(C(=O)OC(C)C(=O)Nc3ccc(N4CCOCC4)cc3)c(C)c2c1 (stereo not drawn) | 11% | 8% | -22%
NS(=O)(=O)c1ccc(CNC(=O)c2ccc(S(=O)(=O)NCc3ccco3)cc2)cc1 | 4% | 4% | 2%
CC(=O)OC1=CC[C@H]2[C@@H]3CC[C@H]4C[C@H](OC(C)=O)[C@@H](OC(C)=O)C[C@]4(C)[C@H]3CC[C@]12C | -22% | -1% | 1%
Clc1ccc(-c2cnnc(-c3ccccn3)n2)cc1 | ? | 47%[activator] | 2%
Cc1ccccc1NC(=O)CC1C(=O)Nc2ccccc2N1CC(=O)N(C)C1CCS(=O)(=O)C1 (stereo not drawn) | 3% | 7% | 4%
O=c1c2ccccc2ccc2ccccc12 | -23% | 7% | -6%

# Entries of single compounds, quoted from the list. Order of screens: RE007 growth inh, StopGo reporter, SARS PLpro yeast
# Shown for CS(=O)(=O)c1ccc(C(=O)NNC(=O)c2cccs2)cc1 = 13%, -1%, 1%
# Shown for NS(=O)(=O)c1ccc(CNC(=O)c2ccc(S(=O)(=O)NCc3ccco3)cc2)cc1 = 4%, 4%, 2%
# Shown for Cc1ccc(Cn2nc(C)c(C(=O)NCC(c3ccc(F)cc3)N3CCOCC3)c2Cl)cc1 (stereo not drawn) = -9%, ?, 4%
# Shown for CC1(C)CC2CC(C)(CN2C(=O)COC(=O)c2cncc(Br)c2)C1 (stereo not drawn) = 2%, -9%, 2%

# Other entries follow:
Structure | RE007 growth inh | StopGo reporter | SARS PLpro yeast
CC(C)c1cccc(C2=CC(=O)C[C@H](c3ccc4c(c3)OCO4)C2)c1 | -7% | -7% | -3%
CS(=O)(=O)NCCn1ccc2ccccc21 | 3% | -12% | -2%
O=C(/C=C/c1ccccc1[N+](=O)[O-])OCC(=O)N1CCCC1 | 0% | 22% | 0%
CCOC(=O)C1=C(CC)Nc2ccccc2N=C1NC(=O)c1cccc(S(=O)(=O)N2CCOCC2)c1 | 12% | -9% | 5%
C=CC[C@H](CC(=O)NCCO)C(=O)NC[C@@H](OC(=O)[C@@H](CC=C)Cc1ccc(F)cc1)c1ccccc1 | -11% | -15% | 3%
COc1cc2cc(CCCOC(=O)c3cc(OC)c(OC)c(OC)c3)oc(=O)c2cc1OC | -8% | -9% | -7%
C=CC[C@@H](Cc1ccc(F)cc1)C(=O)OC[C@H]1CCCN1C(=O)[C@H](CC=C)CC(=O)NCCO | 2% | -18% | 5%
Cc1ccc(S(=O)(=O)/N=C(/c2ccc(F)cc2)N2CCCC2)cc1 | 3% | 12% | 0%
CC(=O)N[C@@H]1CC[C@@]2(O)[C@H]3Cc4ccc(O)c5c4[C@@]2(CCN3CC2CC2)[C@@H]1O5 | -5% | -22% | 0%
O=C(COc1ccccc1)NNC(=S)NC(=O)c1ccccc1 | 1% | -9% | -2%
O=C(CSc1ncn[nH]1)Nc1ccc(S(=O)(=O)Nc2ncccn2)cc1 | 0% | -25% | -4%
CC1CN(S(=O)(=O)c2cccc(C(=O)Nc3cc(Cl)ccc3N3CCOCC3)c2)CC(C)O1 (stereo not drawn) | -2% | -18% | 3%
Cc1ccc(Cl)c(NC(=O)CSc2n[nH]c(=O)n2C2CC2)c1Cl | -3% | -16% | -5%
CN1CCN(NC(=O)c2c(-c3ccccc3)sc3ccccc23)CC1 | -2% | 16% | -4%
N#CCCN(C(=O)COC(=O)c1ccc(S(=O)(=O)N2CCCC2)cc1)c1cccc(Cl)c1 | -4% | -16% | -6%
Cc1ccc(CN2CC(=O)N3[C@H]4c5cc(C)ccc5OC[C@@H]4[C@H](c4ccccc4)[C@]3(C)C2=O)cc1 | -2% | -15% | -15%
Cc1cccc(NC(=O)C2CCCCN2S(=O)(=O)c2ccccc2)c1C (stereo not drawn) | -2% | -18% | -1%
O=C(c1cccc(Cl)c1)N1CCN(c2ccc(N3CCOCC3)nn2)CC1 | 0% | -14% | 4%
O=C(NCC(c1ccco1)N1CCCCC1)c1cc2c(s1)CCCC2 (stereo not drawn) | 0% | -1% | 6%
CCc1nccc2c1[nH]c1ccccc12 | -26% | -26% | 2%
CC(=O)c1cccc(S(=O)(=O)Nc2c(C)nn(C)c2C)c1 | -3% | -23% | -1%
COC(=O)[C@@]12CCCCN1[C@H](c1ccc(-c3ccc(C(C)=O)cc3)c(OC)c1)[C@@H]1C(=O)N(C)C(=O)[C@@H]12 | -1% | -10% | -6%
CCN1CCCc2cc(CN(CCN3CCOCC3)C(=S)Nc3ccc(OC)c(Cl)c3)ccc21 | 1% | -2% | 2%
CN1CCC(N(C)S(=O)(=O)c2ccc(NC(=O)Cc3ccc(F)cc3)cc2)CC1 | 23% | -11% | -2%
CC(C)Oc1ccc(C(=O)NCC(=O)N2CCN(S(=O)(=O)/C=C/c3ccccc3)CC2)cc1 | 2% | ? | -6%
O=C(COc1cccc(Cl)c1)NCC(c1cccs1)N1CCOCC1 (stereo not drawn) | -1% | -10% | 4%
c1ccc(OCc2nnc3n2N=C(c2ccccc2)CS3)cc1 | 2% | 2% | -3%
Cc1nnc2ccc(-c3ccc(NS(=O)(=O)c4ccccc4[N+](=O)[O-])cc3)nn12 | 2% | -6% | 3%
C[C@H](CO)N1C[C@H](C)[C@@H](CN(C)S(=O)(=O)c2cccs2)Oc2c(NS(=O)(=O)c3ccccc3)cccc2C1=O | 2% | -1% | 4%
CC(=O)C[C@H](O)CC(=O)[C@@H]1OC(=O)CCCCCc2ccccc21 | -15% | -14% | 1%
CCN(C(=O)COC(=O)Cc1ccccc1)c1c(N)n(Cc2ccccc2)c(=O)[nH]c1=O | -2% | -10% | 1%
COC(CNC(=O)C(C)n1nc(C)c2ccccc21)OC (stereo not drawn) | -20% | -15% | 2%
O=C(Cc1ccc(-n2c(=O)c3sccc3n(CC(=O)Nc3ccccc3F)c2=O)cc1)NCc1ccco1 | 7% | 10% | 1%
COc1ccc(CN2CCN(C(=O)c3c(-c4ccccc4)noc3C)CC2)cc1F | -15% | -29% | -3%
O=C(COC(=O)COc1ccc(Br)cc1)NC1CCCCCC1 | -5% | -7% | -1%
CCOC(=O)C1=C(C)N(C[C@@H]2CC[C@@H](Cc3ccc(-c4ccccc4)cc3)O2)C(=O)NC1C1CC1 (stereo partly drawn) | 7% | -5% | 7%
COc1ccc(C(=O)COC(=O)/C=C/c2ccco2)cc1F | -7% | 30%[activator] | 4%
CC(=O)Nc1ccc(NC(=O)C(NS(=O)(=O)c2ccc3c(c2)OCCO3)C(C)C)cc1 (stereo not drawn) | 2% | 8% | -4%
CCOC(=O)NN1C(=O)c2ccccc2NC1C (stereo not drawn) | 14% | -12% | -1%
CCOC(=O)c1sc2nc(COC(=O)c3c(F)cccc3F)[nH]c(=O)c2c1C | 7% | 7% | -1%
CC(C)=CCC/C(C)=C/CNC(=O)C[C@H]1C[C@H](C(=O)N2CCCCC2)[C@@]2(C)c3[nH]c4cc(-c5ccco5)ccc4c3CCN2C1=O | 1% | -16% | -6%
CC(OC(=O)c1ccc(-n2cnnn2)cc1)C(=O)Nc1ccc(F)c(F)c1F (stereo not drawn) | 2% | -11% | 1%
Cc1cccc(C(=O)OC(C)C(=O)Nc2ccc(S(=O)(=O)Nc3ncccn3)cc2)c1C (stereo not drawn) | 2% | -21% | -6%
O=C(NC1CCCC1)c1cccc(S(=O)(=O)N2CCOCC2)c1 | 6% | 0% | 2%
Cc1ccc(S(=O)(=O)Nc2cccc(C(=O)NCCN3CCOCC3)c2)cc1F | 3% | -15% | 0%
Cc1ccc(-c2nnc(N3CCC(C)CC3)c3ccccc23)cc1 | -14% | ? | -1%
O=C(c1ccco1)N1CCN(Cc2cccc([N+](=O)[O-])c2)CC1 | 2% | -16% | 0%
COc1ccc(-c2csc3ncnc(N4CCN(C(=O)c5ccco5)CC4)c23)cc1 | -7% | -2% | 2%
CC1CC(C)(C)CC2(C1)NC(=O)N(CC(=O)Nc1ccc3[nH]c(=O)[nH]c3c1)C2=O (stereo not drawn) | -18% | 3% | 0%
Cc1ccc(C2=CC(=O)C[C@H](c3ccc(Cl)cc3)C2)cc1 | -9% | -6% | -2%
COCc1ccc(-c2c(-c3cc(OC)cc(OC)c3)oc(=O)c3cc(OC)c(OC)cc23)cc1 | -9% | 14% | -2%
CC12CCC(C/C1=N/OC(=O)c1cccc([N+](=O)[O-])c1)C2(C)C (stereo not drawn) | -13% | -20% | -21%
O=C(COC(=O)CNC(=O)c1ccccc1F)Nc1ncc(Cl)cc1Cl | 3% | -16% | -4%
